FGF22 binding: binders of human FGF22 protein, primary screen, FGF22 synaptogenesis inhibitor project, biophysical, thermal shift, single point. calls only at 9.99 µM. recombinant FGF22 thermal shift, SYPRO orange fluorescence; percent of sucrose octasulfate shift, DMSO zero. Fibroblast growth factor 22 (Homo sapiens), Q9HCT0. hit rate 1.5% among 340,000. AID 651658, 2012;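 active = melting point raised past a set limit in the mean and every replicate; three in four hits are not shown here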
Target sequence (Q9HCT0 whole entry, looked up): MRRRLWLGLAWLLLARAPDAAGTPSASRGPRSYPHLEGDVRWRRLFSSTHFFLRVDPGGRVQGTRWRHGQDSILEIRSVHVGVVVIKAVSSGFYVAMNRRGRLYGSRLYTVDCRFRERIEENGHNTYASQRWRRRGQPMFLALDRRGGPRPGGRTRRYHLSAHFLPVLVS
Calls only; i = inactive; + = active, no number. Only part of the results is shown; the hit share may differ from the screen's.

molecule | FGF22 binding
N#Cc1ccc(-c2ccc([C@@H]3[C@@H]4CN(Cc5cocn5)C[C@H]3N4)cc2)cc1 | i
C[C@H](CO)N1C[C@H](C)[C@H](CN(C)S(=O)(=O)c2ccc(F)cc2)Oc2c(NS(=O)(=O)c3ccc(Cl)cc3)cccc2C1=O | i
Cc1noc(C)c1S(=O)(=O)Nc1ccc2c(c1)CC(=O)N([C@@H](C)CO)C[C@H](C)[C@@H](CN(C)C(=O)Nc1ccc3c(c1)OCO3)O2 | i
CNC(=O)C[C@@H]1CC[C@@H]2[C@@H](COc3ccc(NC(=O)c4cscn4)cc3C(=O)N2C)O1 | i
COc1ccc(-c2ccc3c(c2)[C@H]2[C@H](CCN2C(=O)c2ccc4c(c2)OCO4)[C@H](CO)N3)cc1 | i
COc1cccc(NC(=O)C[C@@H]2CC[C@H]3[C@@H](COc4ccc(NC(=O)C5CCOCC5)cc4C(=O)N3C)O2)c1 | i
C[C@@H]1CN([C@H](C)CO)C(=O)Cc2cc(NC(=O)Nc3ccc(C(F)(F)F)cc3)ccc2O[C@@H]1CN(C)Cc1ccc(Oc2ccccc2)cc1 | i
O=C(C[C@@H]1C[C@H]2c3cc(NC(=O)Nc4ccc(F)cc4)ccc3O[C@H]2[C@@H](CO)O1)NC1CCCCC1 | i
COc1ccc(S(=O)(=O)Nc2ccc3c(c2)C(=O)N([C@@H](C)CO)C[C@@H](C)[C@H](CN(C)S(=O)(=O)c2ccc(Cl)cc2)O3)cc1 | i
COc1cccc(C(=O)Nc2ccc3c(c2)C(=O)N(C)[C@@H]2CC[C@@H](CC(=O)NCc4ccc(F)cc4)O[C@@H]2CO3)c1 | i
C/C=C/c1ccc(C2[C@@H]3CN(Cc4cccc(OC)c4)C[C@H]2N3)cc1 (some centres not stated) | i
COC(=O)C1=C(C)N(Cc2ccc(Cl)cc2)C(=S)NC1c1cccc(OC)c1 (configuration not stated) | i
Cc1noc(C)c1S(=O)(=O)Nc1ccc2c(c1)CC(=O)N([C@H](C)CO)C[C@H](C)[C@H](CN(C)S(C)(=O)=O)O2 | i
CCCNC(=O)C[C@@H]1C[C@@H]2c3cc(NC(=O)Nc4ccccc4)ccc3O[C@@H]2[C@H](CO)O1 | i
COc1ccc(NC(=O)N(C)C[C@H]2OCc3ccccc3-c3ccccc3C(=O)N([C@@H](C)CO)C[C@@H]2C)c(OC)c1 | i
COc1cccc(NC(=O)C[C@H]2CC[C@@H]3[C@H](COc4ccc(NS(=O)(=O)c5cccc(F)c5)cc4C(=O)N3C)O2)c1 | i
C[C@@H]1CCCCO[C@H](CN(C)Cc2ccc(C(F)(F)F)cc2)[C@H](C)CN([C@H](C)CO)C(=O)c2cc(NC(=O)Nc3ccccc3)ccc2O1 | i
COC(=O)C1=C(C)N(Cc2cccc(C(F)(F)F)c2)C(=NCC2CC2)NC1c1ccccc1C(F)(F)F (configuration not stated) | i
C[C@@H]1CCCCO[C@H](CN(C)Cc2ccc(C(=O)O)cc2)[C@H](C)CN([C@@H](C)CO)C(=O)c2cc(NS(=O)(=O)c3ccccc3)ccc2O1 | i
C[C@@H]1CCCCO[C@H](CN(C)Cc2ccc(C(F)(F)F)cc2)[C@@H](C)CN([C@@H](C)CO)C(=O)c2cc(NC(=O)Cc3ccccc3)ccc2O1 | i
COc1cccc(NC(=O)N(C)C[C@@H]2Oc3cc(C#Cc4ccccc4)ccc3S(=O)(=O)N([C@@H](C)CO)C[C@@H]2C)c1 | +
CNC(=O)C[C@H]1CC[C@H]2[C@H](COc3ccc(NC(=O)c4cccs4)cc3C(=O)N2C)O1 | i
Cc1cc(NC(=O)Cc2cn(C)c3ccccc23)ccc1Nc1cccnc1 | i
CCCNC(=O)N(C)C[C@H]1Oc2cc(-c3ccccc3F)ccc2S(=O)(=O)N([C@H](C)CO)C[C@@H]1C | i
Cc1cccc2ccccc12 | i
COCC(=O)Nc1ccc2c(c1)C(=O)N(C)[C@@H]1CC[C@@H](CC(=O)Nc3cn(C)nc3C)O[C@H]1CO2 | i
CC(C)C#Cc1cnc2c(c1)C(=O)N([C@H](C)CO)C[C@@H](C)[C@H](CN(C)Cc1ccccn1)O2 | i
COc1ccc(S(=O)(=O)N(C)C[C@H]2Oc3ccc(NS(=O)(=O)c4ccc(C)cc4)cc3CC(=O)N([C@@H](C)CO)C[C@H]2C)cc1 | i
C[C@H]1CCCCO[C@H](CN(C)Cc2ccc3c(c2)OCO3)[C@@H](C)CN([C@@H](C)CO)C(=O)c2cc(NS(=O)(=O)c3cn(C)cn3)ccc2O1 | i
Nc1[nH]c(C(=O)c2ccccc2)c(-c2ccc(Cl)cc2)c1C(=O)c1c[nH]c2ccc(F)cc12 | i
C/C=C/c1ccc(C2[C@@H]3CN(C(=O)Nc4ccccc4F)C[C@H]2N3)cc1 (some centres not stated) | i
Cc1noc(C)c1S(=O)(=O)Nc1ccc2c(c1)C(=O)N([C@@H](C)CO)C[C@H](C)[C@H](CN(C)S(=O)(=O)c1cccs1)OCCCC[C@H](C)O2 | i
COc1ccc(NC(=O)Nc2ccc3c(c2)C(=O)N([C@H](C)CO)C[C@@H](C)[C@H](CN(C)S(=O)(=O)c2ccc(OC)cc2)OCCCC[C@@H](C)O3)cc1 | i
C[C@@H]1CCCCO[C@H](CN(C)Cc2ccc3c(c2)OCO3)[C@@H](C)CN([C@H](C)CO)C(=O)c2cc(NC(=O)c3ccncc3)ccc2O1 | i
C[C@@H]1CCCCO[C@@H](CN(C)S(=O)(=O)c2cccs2)[C@H](C)CN([C@@H](C)CO)C(=O)c2cc(NC(=O)c3ccccc3)ccc2O1 | i
COc1ccc(C#Cc2ccc3c(c2)[C@@H]2[C@@H](CCN2C(C)=O)[C@H](CO)N3C)cc1 | i
C[C@H](CO)N1C[C@H](C)[C@H](CN(C)S(=O)(=O)c2cccs2)OCCCC[C@H](C)Oc2ccc(NC(=O)Cc3ccccc3)cc2C1=O | i
COC(=O)C1=C(C)N(Cc2ccccc2C(F)(F)F)C(=NCc2ccc(C(F)(F)F)cc2)NC1c1cccc(Cl)c1 (configuration not stated) | i
O=C(NC1CCCCC1)N1C[C@@H]2N[C@H](C1)C2c1ccc(-c2ccc(F)cc2)cc1 (some centres not stated) | i
CCN=C1NC(c2ccccc2C(F)(F)F)C(C(=O)OC)=C(C)N1C (configuration not stated) | i
COC(=O)C1=C(C)NC(=S)NC1c1ccc(Br)cc1 (configuration not stated) | i
CN(C)C(=O)C[C@@H]1C[C@H]2c3cc(NS(=O)(=O)c4ccc(F)cc4)ccc3O[C@H]2[C@@H](CO)O1 | i
C[C@@H](O)C#Cc1ccc([C@H]2[C@@H](CO)N3CCCCN(C(=O)c4cccc(F)c4)C[C@@H]23)cc1 | i
CN(C)C(=O)C[C@@H]1CC[C@H]2[C@@H](COC[C@@H](O)CN2C(=O)c2ccncc2)O1 | i
Cc1ccccc1C(=O)N[C@@H](CC(C)C)C(=O)N1CCC[C@H]1C(=O)NCc1ccccc1 | i
CCCC(=O)Nc1ccc2c(c1)C(=O)N(C)[C@H]1CC[C@@H](CC(=O)OC)O[C@H]1CO2 | i
O=C(Nc1ccc2c(c1)[C@@H]1C[C@H](CC(=O)N3CCOCC3)O[C@H](CO)[C@@H]1O2)c1ccc2c(c1)OCO2 | i
C[C@@H]1CCCCO[C@@H](CN(C)C(=O)Nc2ccc3c(c2)OCO3)[C@H](C)CN([C@@H](C)CO)C(=O)c2cc(NC(=O)NC3CCCCC3)ccc2O1 | i

Next section, overlapping the part above by four compounds.
molecule | FGF22 binding
Cc1ccccc1C(=O)N[C@@H](CC(C)C)C(=O)N1CCC[C@H]1C(=O)NCc1ccccc1 | i
CCCC(=O)Nc1ccc2c(c1)C(=O)N(C)[C@H]1CC[C@@H](CC(=O)OC)O[C@H]1CO2 | i
O=C(Nc1ccc2c(c1)[C@@H]1C[C@H](CC(=O)N3CCOCC3)O[C@H](CO)[C@@H]1O2)c1ccc2c(c1)OCO2 | i
C[C@@H]1CCCCO[C@@H](CN(C)C(=O)Nc2ccc3c(c2)OCO3)[C@H](C)CN([C@@H](C)CO)C(=O)c2cc(NC(=O)NC3CCCCC3)ccc2O1 | i
OC(CCl)CCl | i
COc1ccccc1-c1ccc(C2[C@@H]3CN(C(=O)c4ccncc4)C[C@H]2N3)cc1 (some centres not stated) | i
C[C@H](CO)N1C[C@H](C)[C@@H](CN(C)Cc2ccc(Oc3ccccc3)cc2)Oc2ccc(NC(=O)Nc3ccc(C(F)(F)F)cc3)cc2CC1=O | i
COc1ccc(NC(=O)Nc2cccc3c2O[C@@H](CN(C)C(=O)Nc2cccc4ccccc24)[C@H](C)CN([C@H](C)CO)C3=O)cc1 | i
COCC(=O)Nc1ccc2c(c1)[C@@H]1C[C@@H](CC(=O)N3CCCCC3)O[C@H](CO)[C@@H]1O2 | i
O=C(C[C@H]1CC[C@@H]2[C@H](COC[C@@H](O)CN2S(=O)(=O)c2cccc(Cl)c2)O1)NCCCN1CCOCC1 | i
C[C@@H]1CCCCO[C@H](CN(C)C(=O)Nc2ccc(C(F)(F)F)cc2)[C@@H](C)CN([C@@H](C)CO)C(=O)c2cc(NC(=O)Nc3ccc(C(F)(F)F)cc3)ccc2O1 | i
Cc1noc(C)c1S(=O)(=O)Nc1ccc2c(c1)C(=O)N([C@H](C)CO)C[C@H](C)[C@H](CN(C)S(=O)(=O)c1cccs1)OCCCC[C@@H](C)O2 | i
COc1cccc(C#Cc2ccc3c(c2)O[C@H](CN(C)C(=O)c2ccccn2)[C@@H](C)CN([C@H](C)CO)S3(=O)=O)c1 | i
Cc1cccc(S(=O)(=O)N2CC[C@@H]3[C@H](CO)Nc4ccc(-c5ccccc5F)cc4[C@@H]32)c1 | i
C[C@@H]1CCCCO[C@H](CN(C)Cc2ccc3c(c2)OCO3)[C@H](C)CN([C@@H](C)CO)C(=O)c2cc(NS(=O)(=O)c3cn(C)cn3)ccc2O1 | i
CCN=C1NC(c2ccc(F)cc2)C(C(=O)OC)=C(C)N1Cc1cccc(C(F)(F)F)c1 (configuration not stated) | i

The last 3 compounds of the part before lead into the next:
molecule | FGF22 binding
Cc1cccc(S(=O)(=O)N2CC[C@@H]3[C@H](CO)Nc4ccc(-c5ccccc5F)cc4[C@@H]32)c1 | i
C[C@@H]1CCCCO[C@H](CN(C)Cc2ccc3c(c2)OCO3)[C@H](C)CN([C@@H](C)CO)C(=O)c2cc(NS(=O)(=O)c3cn(C)cn3)ccc2O1 | i
CCN=C1NC(c2ccc(F)cc2)C(C(=O)OC)=C(C)N1Cc1cccc(C(F)(F)F)c1 (configuration not stated) | i
CNC(=O)C[C@H]1CC[C@@H]2[C@@H](COc3ccc(NC(=O)c4ccccc4F)cc3C(=O)N2C)O1 | i
CNC(=O)C[C@H]1CC[C@H]2[C@H](COc3ccc(NS(=O)(=O)c4ccc(F)cc4)cc3C(=O)N2C)O1 | i
CN1CCN(C(=O)C[C@H]2C[C@@H]3c4cc(NC(=O)c5cccnc5)ccc4O[C@@H]3[C@@H](CO)O2)CC1 | i
CCCNC(=O)C[C@H]1C[C@@H]2c3cc(NS(=O)(=O)c4ccccc4)ccc3O[C@@H]2[C@@H](CO)O1 | i
C[C@H]1CCCCO[C@@H](CN(C)Cc2ccc3c(c2)OCO3)[C@@H](C)CN([C@@H](C)CO)C(=O)c2cc(NC(=O)Nc3cccc4ccccc34)ccc2O1 | i
CCNC(=O)C[C@@H]1CC[C@H]2[C@@H](COc3ccc(NC(=O)Nc4cccc(OC)c4)cc3C(=O)N2C)O1 | i
COc1ccc(-c2ccc3c(c2)[C@@H]2[C@@H](CCN2C(=O)c2ccc(F)cc2)[C@H](CO)N3C)cc1 | i
COc1cccc(S(=O)(=O)N2C[C@@H](O)COC[C@@H]3O[C@@H](CC(=O)N4CCN(c5ccccc5)CC4)CC[C@H]32)c1 | i
CCCC(=O)Nc1ccc2c(c1)C(=O)N(C)[C@H]1CC[C@@H](CC(=O)NCC(F)(F)F)O[C@H]1CO2 | i
C[C@@H]1CN([C@H](C)CO)C(=O)Cc2cc(NC(=O)CCC(F)(F)F)ccc2O[C@@H]1CN(C)S(=O)(=O)c1cn(C)cn1 | i
CC(C)[C@H](NC(=O)c1ccc(Cl)cc1Cl)C(=O)N1CCC[C@H]1C(=O)NCCc1ccccc1Cl | i
COc1ccc(S(=O)(=O)N2C[C@H](O)COC[C@@H]3O[C@@H](CC(=O)NCCN4CCCCC4)CC[C@H]32)cc1 | i
COc1ccc(NC(=O)N(C)C[C@@H]2OCCCC[C@H](C)Oc3ccc(NC(=O)c4ccncc4)cc3C(=O)N([C@@H](C)CO)C[C@H]2C)cc1 | i
C[C@@H]1CN([C@H](C)CO)C(=O)c2cc(NC(=O)CCC(F)(F)F)ccc2O[C@@H](C)CCCCO[C@H]1CN(C)C(=O)c1ccncc1 | i
Cc1noc(C)c1S(=O)(=O)N(C)C[C@H]1OCCCC[C@@H](C)Oc2ccc(NC(=O)Nc3ccc4c(c3)OCO4)cc2C(=O)N([C@@H](C)CO)C[C@H]1C | i
Cc1cc(C(=O)Nc2ccc3c(c2)C(=O)N(C)[C@@H]2CC[C@H](CC(=O)O)O[C@@H]2CO3)no1 | i
C[C@@H]1CN([C@@H](C)CO)C(=O)c2cc(NC(=O)Cc3ccccc3)ccc2O[C@@H](C)CCCCO[C@@H]1CN(C)S(=O)(=O)c1cn(C)cn1 | i
C[C@H](CO)N1C[C@H](C)[C@H](CN(C)S(=O)(=O)c2ccc(F)cc2)OCCCC[C@H](C)Oc2ccc(NC(=O)Nc3ccccc3)cc2C1=O | i
O=C(Nc1ccc(F)cc1)Nc1ccc2c(c1)[C@@H]1C[C@@H](CC(=O)N3CCCCC3)O[C@H](CO)[C@@H]1O2 | i
COc1ccccc1CN1CC[C@H]2[C@H](CO)Nc3ccc(-c4cccc(F)c4)cc3[C@H]21 | i
O=C(Nc1cc(F)ccc1F)N1CCCCN2[C@H](CO)[C@H](c3ccc(-c4cccnc4)cc3)[C@@H]2C1 | i

Screening data as filed in PubChem.
